High-throughput results deposited in PubChem by ICCB-Longwood Screening Facility, Harvard Medical School.
PV pol inh = poliovirus RdRp elongation inhibitors, primary screen, biochemical, fluorescence polarization, total intensity; 150,000 compounds, 0.66% hits; Genome polyprotein (Poliovirus type 1 (strain Mahoney)), P03300; % elongation, % (compound at 16.7 µg/mL); AID 588519, 2011; poliovirus polymerase elongation; active compounds read low; in the data active means % elongation below about 90%; further: some results filed as inactive read as strong as hits
Target sequence (P03300 1749-2209 limits assumed): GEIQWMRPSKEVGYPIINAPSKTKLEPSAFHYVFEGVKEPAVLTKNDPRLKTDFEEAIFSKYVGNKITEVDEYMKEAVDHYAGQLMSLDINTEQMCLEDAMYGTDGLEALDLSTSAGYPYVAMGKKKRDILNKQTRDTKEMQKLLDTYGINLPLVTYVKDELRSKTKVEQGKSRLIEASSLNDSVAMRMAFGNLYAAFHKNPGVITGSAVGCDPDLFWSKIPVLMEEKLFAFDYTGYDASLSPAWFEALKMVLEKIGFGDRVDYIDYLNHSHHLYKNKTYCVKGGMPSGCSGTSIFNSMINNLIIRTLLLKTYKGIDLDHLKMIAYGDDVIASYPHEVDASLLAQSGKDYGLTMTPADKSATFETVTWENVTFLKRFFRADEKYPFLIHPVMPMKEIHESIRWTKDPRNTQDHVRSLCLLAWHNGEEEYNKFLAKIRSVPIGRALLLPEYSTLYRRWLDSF
MbtI inh = MbtI salicylate synthase inhibitors, primary screen, biochemical, fluorescence intensity. purified MbtI enzyme, fluorescence intensity read-out. inhibition, %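 (about 17 µg/mL by stock and volumes)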. 100,000 compounds, 0.89% hits. AID 493033, 2011;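 active means above 50% in both replicates, above 80% if mildly self-fluorescent; inactive means the rest, strongly fluorescent compounds included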;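 further: 0% = mean of negative and 100% = mean of positive controls; one replicate is shown; some compounds called inactive have numbers as strong as hits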
Target sequence (P9WFX0 whole entry, looked up): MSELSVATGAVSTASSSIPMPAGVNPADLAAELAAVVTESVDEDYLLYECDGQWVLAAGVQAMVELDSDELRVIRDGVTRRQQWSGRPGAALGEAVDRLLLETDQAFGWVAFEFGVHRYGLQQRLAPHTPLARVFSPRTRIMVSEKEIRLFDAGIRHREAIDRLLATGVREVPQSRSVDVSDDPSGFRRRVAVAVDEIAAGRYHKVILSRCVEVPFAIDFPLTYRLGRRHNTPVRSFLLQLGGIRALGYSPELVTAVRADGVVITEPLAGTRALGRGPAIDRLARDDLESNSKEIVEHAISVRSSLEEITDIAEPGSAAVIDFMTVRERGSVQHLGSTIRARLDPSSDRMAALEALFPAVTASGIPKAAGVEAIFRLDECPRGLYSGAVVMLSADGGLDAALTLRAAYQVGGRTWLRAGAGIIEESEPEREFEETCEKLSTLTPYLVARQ
MenB inh = M. tuberculosis MenB inhibitors, primary screen, biochemical, absorbance. 1,4-dihydroxy-2-naphthoyl-CoA synthase (Mycobacterium tuberculosis (strain ATCC 25618 / …. MenB enzyme assay, absorbance read-out; some hits fall short of the stated cut. inhibition, %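 (about 12 µg/mL by stock and volumes)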. 100,000 compounds, 0.43% hits;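 active means mean of two replicates above 30%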;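 further: 0% = no compound and 100% = wells with inactive enzyme; the first replicate is given; strong numbers were not always called active; inactives centre near -10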
PV pol inh intensity = also measured in PV pol inh; calls as there; % elongation; measured here: total intensity read-out; formula for this scale not given here;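 total fluorescence in place of polarization; lower means less elongation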
Starred values were filed as active, the others as inactive; i = inactive; . = not tested or not shown.

SMILES	PV pol inh	PV pol inh intensity	MbtI inh	MenB inh
Nc1nc(-c2ccco2)c(-c2ccco2)s1	101	104	-5	-12
Cc1ccc(-n2nnnc2-c2ccccc2)cc1	100	102	-3	-14
CC1CC(C)(C)NC(=S)O1 (configuration not stated)	103	101	-20	-19
COc1ccc(CC(=O)N2CCOCC2)cc1	102	104	4	12
CC(C)(C#N)NNC(N)=S	99	109	6	-37
Cc1cc(C(=S)NC(=O)c2ccccc2)c(C)n1C	102	97	65*	-18
Cc1nc2nc(NC(=O)C3CCCCC3)[nH]n2c(=O)c1C	99	101	2	1
CSc1ccc(/C=N/NC(N)=S)cc1	.	.	-19	-65
O=C(c1cc(-c2ccc(O)cc2)on1)N1CCN(Cc2ccccc2)CC1	103	104	-3	-31
CC(C)CNC(=O)Cc1ccccc1	101	100	-5	-14
COc1ccc(C(=O)c2ccc(OC)c(OC)c2)cc1	106	101	26	-22
CCOc1ccc2[nH]c(=O)c(CN(CCO)C(=O)Nc3ccc(OC)cc3)cc2c1	100	101	-3	-35
Cc1ccc(CCS(=O)(=O)c2ccc(C(C)C)cc2)c[n+]1C	100	98	7	-6
CCCC1CC(C)(C(=O)C[n+]2cccc(C(N)=O)c2)OC1=O (configuration not stated)	110	111	.	-24
CN1CCN(c2nc(C#N)c(C#N)nc2C(C#N)=C2Nc3ccccc3N2)CC1	98	104	-10	-17
COCC(=O)N1CCN(Cc2ccccc2)CC1	101	104	-23	9
O=C1OC(c2ccccc2)OC(=O)C1=Cc1cccc(OCc2ccccc2)c1 (configuration not stated)	97	96	22	-1
O=C(NCCCN1CCCCCC1)c1cc(=O)[nH]c2ccc(S(=O)(=O)N3CCCCC3)cc12	98	104	-12	5
CCN(C(=O)C(C)Sc1ccc(S(=O)(=O)N2CCN(C)CC2)cn1)c1ccccc1 (configuration not stated)	102	108	-1	-16
CC1CCN(C(=O)c2ccc(Br)cc2)CC1	102	101	4	36*
COc1ccc(OC)c(NC(=O)COc2ccc3c4c(c(=O)oc3c2)CCC4)c1	100	99	22	-8
COC(=O)C(C)NC(=O)N1CCN(c2nnc(C)c3c(C)n(-c4ccc(C)cc4)nc23)CC1 (configuration not stated)	100	101	4	5
O=C(NCc1ccc(C(F)(F)F)cc1)c1ccc(Cl)cc1Cl	103	105	-3	-7
CC(=NCCc1ccccc1)C1=C(O)C(c2ccccc2)OC1=O (configuration not stated)	101	106	-3	.
O=C(Cn1c(=O)n(CC(=O)NC2CCCC2)c(=O)c2ccccc21)Nc1ccc(F)cc1	103	99	-1	-8

Single records, as listed above. Order of screens: PV pol inh, PV pol inh intensity, MbtI inh, MenB inh
Shown for O=C(NCCCN1CCCCCC1)c1cc(=O)[nH]c2ccc(S(=O)(=O)N3CCCCC3)cc12 = 98, 104, -12, 5
Shown for COc1ccc(C(=O)c2ccc(OC)c(OC)c2)cc1 = 106, 101, 26, -22
Shown for O=C(Cn1c(=O)n(CC(=O)NC2CCCC2)c(=O)c2ccccc21)Nc1ccc(F)cc1 = 103, 99, -1, -8
Shown for CCCC1CC(C)(C(=O)C[n+]2cccc(C(N)=O)c2)OC1=O (configuration not stated) = 110, 111, ., -24
Shown for CC(=NCCc1ccccc1)C1=C(O)C(c2ccccc2)OC1=O (configuration not stated) = 101, 106, -3, .

Additional structures:
SMILES	PV pol inh	PV pol inh intensity	MbtI inh	MenB inh
Cc1ccc(C(=O)CSc2nc(C)cc(=O)[nH]2)cc1	103	105	-2	.
CCCCn1c(=O)[nH]c2nc3cc(N(C)C)ccc3nc2c1=O	93	175	4	-12
CN(C)S(=O)(=O)c1ccc(-c2csc(-c3cccnc3)n2)cc1	101	104	-22	-3
COc1ccc(C2SCC(C(=O)NC3CCCCCC3)N2C(=O)Nc2ccc(C)c(C)c2)cc1 (configuration not stated)	106	107	13	0
CCOCC(=O)N1CCC(Cc2ccccc2)CC1	101	102	-17	-4
Cc1ccc2nc3ccc(NCc4ccccc4)nn3c(=O)c2c1	104	99	14	11
Fc1ccc(-c2nnc(Cl)c3ccccc23)cc1F	100	95	1	.
C=C1C(C(=O)N2CCN(c3ccccc3)CC2)C1C(=O)N1CCN(c2ccccc2)CC1 (configuration not stated)	100	104	0	-16
COc1ccc(C)cc1CSc1nnc(-c2cccs2)n1C1CC1	106	110	9	-26
Cc1oc2ncn(C)c(=O)c2c1C(=O)O	99	108	3	-2
Cc1c(C(=O)NCCCc2ccccc2)oc2c1-c1[nH]ncc1CC2	98	100	-22	-13
CC1CC2(C)Oc3ccccc3C3OCC1CC32 (configuration not stated)	103	103	-3	2
COc1ccc(CC(=O)N2CCc3ccccc32)cc1OC	101	107	-5	-8
Cc1ccc(OCC(=O)OCC(=O)Nc2ncc(Cl)cc2Cl)cc1C	101	106	5	-18
CC(NC(=O)/C=C/c1ccc2c(c1)OCO2)c1ccccc1 (configuration not stated)	100	99	-5	-8
CC(O)c1nc2ccccc2s1 (configuration not stated)	100	105	9	-23
Cc1sc(NC(=O)C(Cc2ccccc2)Cc2ccccc2)c(C#N)c1C	101	98	-8	-26
CC1CC(=O)N(C)c2ccccc2S1 (configuration not stated)	102	100	-2	-32
CCOC(=O)c1oc2ccc3nc(N(C)C)sc3c2c1C	103	99	3	-1
COc1nc2nonc2nc1Nc1ccc(C)cc1	102	104	-2	-5
O=C1c2ccccc2C(=O)N1CCCCSc1nnc2ccccn12	101	103	-72	13
O=C(Nc1cccc(-c2nc3ccccc3[nH]2)c1)C1CCCO1 (configuration not stated)	101	100	i	-4
CC1CCCN(S(=O)(=O)c2cccc(-c3cn4cccnc4n3)c2)C1 (configuration not stated)	100	99	115	-17
O=S(=O)(NNC1=NCCCCC1)c1ccccc1	111	109	-4	-2
CNC(=S)N(Cc1ccc(S(N)(=O)=O)cc1)CC(F)(F)F	103	94	-2	-13

(more compounds)
SMILES	PV pol inh	PV pol inh intensity	MbtI inh	MenB inh
CCOC(=O)C1=NN(c2ccc(C)cc2)C2C(=O)N(c3ccc(Cl)cc3)C(=O)C12 (configuration not stated)	101	102	8	-2
O=S1(=O)CC(O)C(N2CCN(Cc3ccccc3)CC2)C1 (configuration not stated)	104	111	-10	-30
CC1=C(C(=O)OC2CCCC2)C(c2cc3c(cc2Cl)OCO3)C2=C(CCCC2=O)N1 (configuration not stated)	102	101	116	-11
COc1ccc(/C=C2/C(=O)CNC2=O)cc1	102	105	2	-27
COc1ccc(C(=O)Nc2ccc(N3CCN(S(C)(=O)=O)CC3)cc2)cc1OC	98	100	22	5
Cc1ccc(N2N=NC3CCC(C4=CCCC4)C32N2CCOCC2)cc1Cl (configuration not stated)	108	113	-4	-1
Cc1cccc(C)c1NC(=O)C(C)Sc1n[nH]c(-c2ccncc2)n1 (configuration not stated)	101	103	-12	-7
CC(=O)Nc1ccc(/C=N/n2cc(-c3ccccc3)[nH]c2=S)cc1	103	105	7	-79
O=c1ccc2cc(S(=O)(=O)Nc3ccccn3)ccc2o1	101	99	9	8
COc1ccc(NC(=O)/C=C2\SC(=O)NC2=O)cc1	100	98	-21	-14
CCCCn1c(N)c(S(=O)(=O)c2ccccc2)c2nc3ccccc3nc21	99	93	103	-11
COc1ccc(OC(=O)Nc2csc(Cc3ccsc3)n2)cc1	102	106	-9	5
CCc1ccc(Sc2cc(C(=O)NC3CC3)c3ccccc3n2)cc1	103	103	20	-1
Cc1nnc(NC(=O)c2ccccc2Br)s1	101	100	-6	.
COc1ccc(S(=O)(=O)n2nccc2-c2ccc(-c3cccs3)s2)cc1OC	105	113	38	-30
COc1cc(/C=N/NC(N)=O)cc(Br)c1OC	106	112	4	-8
CN(C)C(=O)c1c(NC(=O)c2ccccc2)sc2c1CCC2	100	103	-10	-10
COC(=O)c1ccc(C(=O)OC)c(NC(=S)N2CC(C)CC(C)C2)c1 (configuration not stated)	99	105	3	-6
COCc1c(C(=O)Oc2ccc(-n3cnnn3)cc2)sc2cccc(F)c12	102	122	-4	-18
COc1ccc(-c2nn(C)c(=O)c3ccccc23)cc1CNC(=O)NC1CCCCC1	103	105	29	2
CC(C)(C)c1ccc(CNC(=O)C2CCCN2S(=O)(=O)c2ccccc2)cc1 (configuration not stated)	103	90	.	-25
CCNCC(O)COc1cc(C)c(Cl)c(C)c1 (configuration not stated)	101	104	-7	-21
O=C(NCC(=O)N1CCCC1)c1ccc(Br)cc1	107	107	-2	-22
COc1cccc(NC(=O)c2cc(Cl)nnc2Cl)c1	101	94	-4	.
O=C(OCC(=O)c1c[nH]c2ccccc12)c1cccs1	107	110	-58	6

Structures shown so far that have a cyano group, in the order listed:
SMILES	PV pol inh	PV pol inh intensity	MbtI inh	MenB inh
CC(C)(C#N)NNC(N)=S	99	109	6	-37
CN1CCN(c2nc(C#N)c(C#N)nc2C(C#N)=C2Nc3ccccc3N2)CC1	98	104	-10	-17
Cc1sc(NC(=O)C(Cc2ccccc2)Cc2ccccc2)c(C#N)c1C	101	98	-8	-26

More records follow.
SMILES	PV pol inh	PV pol inh intensity	MbtI inh	MenB inh
COc1ccc(C2c3cccn3CCN2S(=O)(=O)c2ccc(NC(C)=O)cc2)cc1OC (configuration not stated)	108	110	-4	-24
CC1=C(C#N)C(c2cccc(Oc3ccccc3)c2)C2=C(CCCC2=O)N1 (configuration not stated)	99	102	i	5
COC(=O)c1cc(OCC(=O)N2CC(C)CC(C)C2)cc(C(=O)OC)c1 (configuration not stated)	103	102	-5	-6
CC(C)NC(=O)c1nc2ccccc2s1	103	103	17	-16
O=C1c2ccccc2C(Nc2ccc3c(c2)OCCO3)N1c1ccccn1 (configuration not stated)	102	104	4	2
O=C1Cc2ccccc2C(=O)N1	150	92	6	6
CCCn1c(-c2nonc2N)nc2ccccc21	117	134	.	-14
c1ccc(CCNc2ccccc2)cc1	105	100	-10	-8
CCCCN(Cc1cc2cc(OC)ccc2[nH]c1=O)S(C)(=O)=O	100	100	-17	-13
COC(=O)c1ccc(COC(=O)c2ccc3c(=O)n4c(nc3c2)CCCCC4)o1	102	94	21	-39
CC(C)(C)n1nnnc1C(c1cccs1)N1CCCc2ccccc21 (configuration not stated)	105	103	-7	-79
CCOC(=O)c1c(C)oc(NC(=O)c2nn(Cc3ccccc3)c(=O)c3ccccc23)c1C#N	98	92	15	4
COC(=O)CSc1nnc2c3ccccc3n(CCc3ccccc3)c2n1	96	101	10	-23
O=C(C(=C1NCCN1)n1ccnc1)c1ccc(Cl)cc1	96	89	.	-22
CCN(Cc1ccccc1)C(=O)Cn1c(SCc2ccc(F)cc2)nc2cccnc21	99	105	32	-16
CN(C)c1ccc(Nc2ncnc3ccc(I)cc23)cc1	102	104	-3	-4
CCOC(=O)c1cc(/C(C)=N/OC(=O)c2ccccc2)on1	102	103	-6	1
CC(C)(C)NCCOc1ccc2ccccc2c1	99	93	19	8
CCN(CC)S(=O)(=O)c1ccc(-c2ccc(C3N=C(N)Nc4nc5ccccc5n43)o2)cc1 (configuration not stated)	106	102	-2	-6
O=C(Cn1ncc2c1-c1ccccc1OC2)Nc1nccs1	107	107	-10	-27
O=C(c1cccs1)N1CCN(Cc2cccc(Cl)c2)CC1	100	102	.	-5
O=C1CNC(=S)N1CCc1cnc[nH]1	102	107	-7	-29
C/C(=N\NC(=O)COc1ccc(Cl)cc1)c1ccc(O)cc1O	107	115	8	-97
CN(C(=O)COC(=O)c1cc2ccccc2cc1O)c1ccccc1	103	106	-18	.
Cc1nc2nc[nH]n2c(=O)c1CCC(=O)O	99	101	12	-10

An excerpt of these results, bar-delimited.
canonical_smiles | PV pol inh | PV pol inh intensity | MbtI inh | MenB inh
CCOC(=O)c1cc(/C(C)=N/OC(=O)c2ccccc2)on1 | 102 | 103 | -6 | 1
CC(C)(C)NCCOc1ccc2ccccc2c1 | 99 | 93 | 19 | 8
CCN(CC)S(=O)(=O)c1ccc(-c2ccc(C3N=C(N)Nc4nc5ccccc5n43)o2)cc1 (configuration not stated) | 106 | 102 | -2 | -6
O=C(Cn1ncc2c1-c1ccccc1OC2)Nc1nccs1 | 107 | 107 | -10 | -27

Later entries.
SMILES	PV pol inh	PV pol inh intensity	MbtI inh	MenB inh
CCN1CCN(Cc2c(C)[nH]c3c(C)cc(C)cc3c2=O)CC1	102	99	34	-21
Cc1ccc2[nH]c(=O)c3cc(C(=O)NCCN4CCN(c5ccccc5F)CC4)sc3c2c1	98	101	10	-18
O=C(O)/C=C/c1nc2ccccc2s1	101	104	54	16
O=C(/C=C/c1cccs1)NCCOc1ccccc1	101	97	15	-2
CCOc1ccc(CCNC(=O)CN2CCN(Cc3ccccc3C)C2=O)cc1OCC	99	103	-3	-1
CC(C)OC(=O)C1=C(N)OC2=C(C(=O)CCC2)C1c1ccccc1F (configuration not stated)	103	102	-3	-36
CCCCN(C)S(=O)(=O)c1ccc(C(=O)Nc2nnc(-c3ccco3)o2)cc1	100	100	18	-46
CCC(=O)OC1(C(=O)CCl)[C@@H](C)C[C@H]2[C@@H]3CCC4=CC(=O)C=C[C@]4(C)[C@@]3(F)[C@@H](O)C[C@@]21C (some centres not stated)	97	99	3	-9
COC(=O)c1cc(-c2ccccc2)nc2ccccc12	99	102	30	-10
Cc1ccc(S(=O)(=O)c2nc(-c3ccccc3)oc2NCc2ccc3c(c2)OCO3)cc1	99	101	-3	-49
CCOC(=O)c1sc2sc(C(=O)OCC)c3c2c1CN(Cc1ccccc1)C3	101	102	15	29
CC(OC(=O)CSc1nc2ccccc2o1)c1nnc(-c2ccccc2)o1 (configuration not stated)	103	109	9	-21
CC(C(=O)Nc1ccc2c(c1)OCCO2)N(C)Cc1c(F)cccc1Cl (configuration not stated)	102	100	22	7
